Tg IFNy HTS: T. gondii growth inhibition with IFN-gamma, primary screen, cell-based | 3.8% of 69,000 active | Toxoplasma gondii growth in IFN-gamma-treated host cells; active compounds read low; reference of the scale not given here | activity change, negative = inhibition, %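 (about 20 µM by stock and volumes)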 | AID 1259416, 2018;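 active = below -70%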;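 note: host cells are HeLa cells infected with Toxoplasma gondii; parasite growth read as luciferase light; one replicate is shown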
Active calls of the source: *.

SMILES	Tg IFNy HTS
Cc1nc(-c2cccc(F)c2)sc1CCNC(=O)C1CCCCC1	13
O=C(CC1Nc2c3ccccc3nc(=S)n2C1=O)NCc1ccc2c(c1)OCO2 (stereo unspecified)	-9
Cc1oc(-c2ccc(C(=O)NCc3ccccc3F)cc2)nc1CN1CCN(c2ccccc2)CC1	-22
Cc1ccc(CN2CCC3(CC2)c2ncc(-c4ccccc4)n2CCN3C)o1	-50
COc1ccc(N2CCN(Cc3cnc[nH]3)C(C)C2)cc1 (stereo unspecified)	6
Cc1nn(-c2cc(Cl)ccc2Cl)c(N)c1C(N)=S	30
CC(C)NC(=O)N1CCC(c2nnc3ccc(C(=O)C4CCC4)cn23)C1 (stereo unspecified)	12
Cc1ccc(NC(=O)C(C)N(C)Cc2cc(C(C)(C)C)n[nH]2)cc1 (stereo unspecified)	30
Cn1ccnc1CN1CCOC(CCNC(=O)NC2CCCC2)C1 (stereo unspecified)	7
Cc1cc(C(=O)N[C@@H](C)Cn2nnn(-c3ccco3)c2=O)on1	5
C=CCOc1ccccc1NC(=O)c1cc(=O)c2cc(C)c(C)cc2o1	47
Cc1ccc(S(=O)(=O)Nc2cncc(C(=O)Nc3ccccc3C)c2)c(C)c1	-20
O=C(c1cc(C2CC2)[nH]n1)N1CCCC1c1nccs1 (stereo unspecified)	5
COCC(=O)Nc1ccc2c(c1)C(=O)N(C)C[C@@H](OC)[C@H](C)CN(C(=O)c1ccncc1)[C@H](C)CO2	-66
CC(C)c1ccc(S(=O)(=O)N2CCC(C(=O)NCCc3csc(-c4ccccc4)n3)CC2)cc1	-49
O=C(Cc1ccc(F)cc1)N1CCN(S(=O)(=O)c2cc3c4c(c2)CCN4C(=O)CC3)CC1	12
Cc1cccc(C(=O)NCCc2sc(-c3ccccc3)nc2C)c1	426
Cc1nc(-c2ccc(Cl)cc2)sc1-c1csc(-c2ccc(Cl)cc2)n1	-15
CC(C)(C)c1ccc(SC(=O)c2ccc(OCC(F)(F)F)nc2)cc1	-28
Cc1cc(C)c2cc(C)c(SCC(=O)Nc3nc(C)cs3)nc2c1	-58

Gathered by group: those above with a Cl atom.
SMILES	Tg IFNy HTS
Cc1nn(-c2cc(Cl)ccc2Cl)c(N)c1C(N)=S	30
Cc1nc(-c2ccc(Cl)cc2)sc1-c1csc(-c2ccc(Cl)cc2)n1	-15

Further compounds:
SMILES	Tg IFNy HTS
CCn1cc(-c2n[nH]c(=O)n2-c2c(C)noc2C)c(C)n1	0
COc1ccccc1NCN1C(=O)c2ccccc2C1=O	421
O=C(CC1COCCN1)N1CCN(Cc2ccccn2)CC1 (stereo unspecified)	7
Cc1ccc(N2CCN(c3nc(-c4ccc(Cl)cc4)nc4ccccc34)CC2)c(C)c1	28
Cc1ccnc(NCCn2cnc(-c3ccccc3)c2-c2ncc[nH]2)c1	-19
COc1cc(C(C)=O)ccc1OCc1cc(C(=O)NCC(F)(F)F)no1	3
CC(=O)Nc1ccc(C(=O)N(c2ccc(C)c(F)c2)C2(C(=O)NCc3ccccc3)CCN(C(C)=O)CC2)cc1	-55
CCOCC(=O)N1CCC2(CCC(=O)N2CCN2CCCC2)CC1	-89*
Cc1ccccc1-c1ccc([C@@H]2[C@H](CO)N3CCCCN(S(=O)(=O)Cc4ccccc4)C[C@@H]23)cc1	-65
CCc1ccc(NC(=O)C(=O)NCCc2csc(-c3ccc(F)cc3)n2)cc1	26

In the list so far, these have an NH in an aromatic ring:
SMILES	Tg IFNy HTS
COc1ccc(N2CCN(Cc3cnc[nH]3)C(C)C2)cc1 (stereo unspecified)	6
Cc1ccc(NC(=O)C(C)N(C)Cc2cc(C(C)(C)C)n[nH]2)cc1 (stereo unspecified)	30
O=C(c1cc(C2CC2)[nH]n1)N1CCCC1c1nccs1 (stereo unspecified)	5
CCn1cc(-c2n[nH]c(=O)n2-c2c(C)noc2C)c(C)n1	0
Cc1ccnc(NCCn2cnc(-c3ccccc3)c2-c2ncc[nH]2)c1	-19

(more compounds)
SMILES	Tg IFNy HTS
O=C(c1ccncc1)N1CCCC2(CCCN2Cc2cccc(Cl)c2)C1 (stereo unspecified)	13
CCC(C(=O)Nc1nccs1)N1C[C@H]2C[C@H](O)[C@H](O)C[C@H]2C1 (stereo partly specified)	11
COCc1ccc(C(=O)N2CCCC(c3cc4nc(N(C)C)ncc4c(=O)[nH]3)C2)o1 (stereo unspecified)	14
O=C(C(=O)N1CCCN2CCCC2C1)c1ccco1 (stereo unspecified)	0
Cc1oc(-c2cccc(Cl)c2)nc1CN1CCN(C(=O)NCCc2ccccc2)CC1	-49
COc1ccc(-c2nc(NCCCN3CCC(Cc4ccccc4)CC3)c3ccccc3n2)cc1	-55
Cc1ccc2c(C)c(C(=O)N3CCCC3Cn3cccn3)oc2c1 (stereo unspecified)	-2
CCSc1nc(CC(=O)NC(C)Cn2nc(C)cc2C)cs1 (stereo unspecified)	19
O=S(=O)(NCCc1csc(-c2ccc(Cl)cc2)n1)c1ccc(F)cc1F	-11
O=C(c1ccco1)N1CCCN(Cc2nc(-c3cccc(Cl)c3)no2)CC1	5
CC(C)CN1CCNC(=O)C12CCN(C(=O)Cc1ccsc1)CC2	1
CCS(=O)(=O)N1CCC2(CC1)OC(=O)C(C)=C2C(=O)NCCCN1CCCC1=O	6
CC1CNC(=O)CCN1C(=O)c1ccccc1-c1nccn1C (stereo unspecified)	-4
NC1=N[C@H]2[C@H](CS[C@H]2CCCCC(=O)O)N1	-49
COc1ccccc1NC(=O)N1C[C@@H](C)[C@H](OC)CN(C)C(=O)c2ccc(NC(=O)c3cc(C)on3)cc2OC[C@H]1C	25
CCCC#Cc1ccc([C@H]2[C@@H](C#N)N(C(=O)CN3CCOCC3)[C@@H]2CO)cc1	1
O=C(c1ccn[nH]1)N1CCC2(CC(=O)N(c3ccc(F)c(F)c3)C2)C1 (stereo unspecified)	0
C=CCn1c2c(ccc1=O)CCN(c1cc(OC)ncn1)CC2	2
O=C(c1cnccn1)N1CC(=O)N2[C@H](CO)[C@H](c3ccc(/C=C/c4ccccc4)cc3)[C@@H]2C1	-24
CC(=O)N1CCn2nc(C(=O)N(Cc3ccc4[nH]ccc4c3)C3CC3)cc2C1	3

Looked up above.
O=C(c1cnccn1)N1CC(=O)N2[C@H](CO)[C@H](c3ccc(/C=C/c4ccccc4)cc3)[C@@H]2C1 in Tg IFNy HTS is entered as -24
CC(=O)N1CCn2nc(C(=O)N(Cc3ccc4[nH]ccc4c3)C3CC3)cc2C1 in Tg IFNy HTS is entered as 3
CCCC#Cc1ccc([C@H]2[C@@H](C#N)N(C(=O)CN3CCOCC3)[C@@H]2CO)cc1 in Tg IFNy HTS is entered as 1
CC(C)CN1CCNC(=O)C12CCN(C(=O)Cc1ccsc1)CC2 in Tg IFNy HTS is entered as 1

Next records:
SMILES	Tg IFNy HTS
O=C(CN1C(=O)c2ccccc2C1=O)OC(C(=O)NC1CCCC1)c1ccccc1 (stereo unspecified)	-7
Cc1cccc(CN2CCN(Cc3ccc4cccc(F)c4n3)CC2)c1	4
COCCOCC(=O)N1CCCn2nc(-c3nc4ccccc4n3C)cc2C1	84
CN(C)CCCOC(=O)c1cc2ccccc2o1	6
Cc1nn(C)cc1S(=O)(=O)N1CCCN(c2ccc3c(c2)OCCO3)CC1	16
C=Cc1cccc(CN(Cc2cnn(C)c2)C2CC2)c1	99
CN(C)CC1(O)CCN(C(=O)c2cccc3cc[nH]c23)C1 (stereo unspecified)	1
O=C(Nc1ccc(F)cc1)N1CC(=O)N2[C@H](C1)[C@H](c1ccc(-c3cccc(F)c3)cc1)[C@@H]2CO	-59
C/C=C/c1ccc([C@@H]2[C@@H](CO)N3C(=O)CN(C(=O)Nc4ccc(F)cc4)C[C@@H]23)cc1	-1
O=C1NCCCCC1NS(=O)(=O)c1ccc2c(c1)CCO2 (stereo unspecified)	-19
CC(C)Oc1ccc(CNS(=O)(=O)c2cc3c4c(c2)CCN4C(=O)CC3)cc1	23
CCS(=O)(=O)N1CCC2(CCCN(c3ccc(C)nn3)C2)C1 (stereo unspecified)	9
CCOc1ccc2oc(C)c(C(=O)N3CCN4C(=O)CNC(=O)C4C3)c2c1 (stereo unspecified)	100
Cc1nc(-c2cccnc2)ncc1C(=O)N1CCOC(C(F)(F)F)C1 (stereo unspecified)	-3
Nc1ncnc2c1ncn2[C@H]1CC[C@@H](CO)O1	11
Cc1ccc(C2(CN3CCC(n4nc(C)cc4C)C3)CCNCC2)nc1 (stereo unspecified)	-2
COc1ccc(-c2noc(Cn3ccc4cccnc43)n2)cc1	-35
O=C(c1csc(-c2ccc(N3CCCC3)nc2)n1)N1CCC2(CC1)OCCO2	41
Cc1cc(C)cc(C(=O)N2CCC3(CC2)NC(=O)c2ccc(F)cc2N3C)c1	3
C=CCN1CC2(CCN(C(=O)Cc3ccsc3)CC2)OCC1=O	102
CCN1CCN(C2=NC(C(=O)Nc3ccc(OC)cc3)CC(=O)N2)CC1 (stereo unspecified)	-24
Cc1[nH]c(=O)[nH]c(=O)c1-c1ccc(C(C)N2CCOCC2)cc1 (stereo unspecified)	2
CC(C)N(CCCNS(=O)(=O)c1ccc2[nH]c(=O)ccc2c1)C1CCCCC1	35
Cc1cc(NC(=O)Cn2c(=O)cc(-c3nc(C4CC4)no3)c3ccccc32)ccc1F	60
CCOc1ccccc1-c1noc(-c2c(O)c3cccc(Cl)c3[nH]c2=O)n1	51
COc1ccc(CSc2nc(C)cc(C)c2C#N)cc1	-21
O=C(C[C@H]1CC[C@H]2[C@@H](COC[C@@H](O)CN2C(=O)c2cccnc2)O1)NCC1CC1	7
CC(=O)Nc1cc(C(C)(C)C)nn1-c1ccc(Cl)cc1	-5
Cc1cc(NC(=O)CN2CCCCC2)n(-c2ccccc2)n1	-15
COc1cccc(CNC2=NCCNC23CCN(S(=O)(=O)c2ccc(C)cc2C)CC3)c1	3
Cc1[nH]cnc1CN1CCOC2(COCCN(C)C2)C1 (stereo unspecified)	-4
Cc1cccc(N2CCN(C(=O)c3csc(C(=O)NC4CC4)n3)CC2)c1C	111
CCCn1ccnc1CN1CCCN(c2ccnc(C)c2)CC1	-42
COC(=O)C1C(O)CCC2CN3CCc4c([nH]c5ccccc45)C3CC21 (stereo unspecified)	21
O=C(Nc1ccc(Nc2ccccc2)nc1)c1ccccc1C1CCNC1 (stereo unspecified)	10
COc1ccc(OC)c(S(=O)(=O)N2CCC3(CC2)Nc2ccc(C)c(C)c2-n2cccc23)c1	14
COc1ccc(CNC(=O)C[C@@H]2CC[C@@H](NC(=O)CN(C)C)[C@H](CO)O2)cc1	-37
CO[C@H]1CCN(C2CCOCC2)C[C@@H]1Cc1ccccc1	4
Fc1cccc(Cc2noc(CN3CCN(c4cnccn4)CC3)n2)c1	7
Cc1ccc2c(c1)c1c(n2C)C(=O)CCC1	-21
Fc1ccccc1-n1cc(-c2ccnc(NCc3ccon3)n2)cn1	-76*
COc1ccccc1CNC(=O)CCC1N=C2c3ccccc3N=C(SCc3cccc(F)c3)N2C1=O (stereo unspecified)	-14
CC(C)[C@H](Nc1nc(C2CCCC2)nc2c1cnn2C)C(N)=O	-1
COc1ccccc1C1c2[nH]c3ccccc3c2CCN1C(=O)Cn1nc2ccccc2n1 (stereo unspecified)	-25
CN1[C@@H]2c3ccc(-c4ccc(F)cc4)c(=O)n3C[C@@H]2[C@@H](CO)[C@@H]1C(=O)NCc1ccccn1	1
CC(C)c1cc(C2CCN(C(=O)c3ccc(C#CC(C)(C)O)o3)CC2)[nH]n1	10
Cc1noc(-c2cc(=O)n(CC(=O)Nc3cc(Cl)ccc3C)c3ccccc23)n1	24
CN(Cc1ccccc1)Cc1cc(C(=O)N(C)Cc2cnccn2)no1	-7
COc1nc2ccccc2cc1-c1ccc(-n2cnnc2)nc1C	-47
Cc1nc(-c2ccccc2)nc2c1CCN(CC1CCOC1)CC2 (stereo unspecified)	-3

Additional structures:
SMILES	Tg IFNy HTS
Cc1c(-c2ccc(F)cc2)[nH]c2ccc(CNC(=O)c3cncn3C)cc12	-1
CCc1nnc(NC(=O)c2csc3c2CCC(CC)C3)s1 (stereo unspecified)	7
Cc1ccc(-c2nc(N)nc3[nH]ncc23)c(-n2cccn2)c1	-42
Cc1nccn1-c1c(N)cccc1Cl	31
C=C(C)CN1CC(C(=O)O)CC1=O (stereo unspecified)	2
CCOCc1ncn2c1CN(S(=O)(=O)c1ccc(C)cc1)CC2	6
OC(c1ccccc1)(c1ccccc1)C1CCN(C(=S)Nc2ccc(Cl)cc2)CC1	1
Cc1ccc(-c2nc(Cn3nnc(C(=O)NC(C)c4ccc(F)cc4)c3C)c(C)o2)cc1 (stereo unspecified)	11
Cc1cnc(CN(C)Cc2cc3n(n2)CCNC3)[nH]1	-1
COc1ccc(C(CC(=O)O)NS(=O)(=O)c2ccc(C)cc2)cc1 (stereo unspecified)	0
COc1ccc(NC(=O)Nc2cccc3c2O[C@@H](CN(C)Cc2ccc(C(=O)O)cc2)[C@@H](C)CN([C@H](C)CO)C3=O)cc1	4
CCS(=O)(=O)N1CCC2(CCCN(C(=O)Cc3cccnc3)C2)C1 (stereo unspecified)	-8
Cc1ccoc1C(=O)N1CCC(O)(C(=O)O)CC1	-4
CSc1nnnn1-c1ccc(S(=O)(=O)N(C)C)cc1	-7
O=C(NCc1ccncc1)c1cccc2[nH]cc(CN3CCCC3)c12	57
O=C(Nc1ccccc1)Oc1cccc(F)c1OC(=O)Nc1ccccc1	-31
NC1(C(=O)O)CCN(Cc2cccc(Cn3cccn3)c2)C1 (stereo unspecified)	5
CCC(NC(=O)c1cc(C(C)C)nn1C)c1ccc(S(C)(=O)=O)cc1 (stereo unspecified)	-1
COCc1cc(=O)n(-c2ccccc2)[nH]1	21
Cc1oc(-c2ccc(F)cc2)nc1C(=O)NC(c1ccccc1)c1cccnc1 (stereo unspecified)	-10
CCOc1ccc(NC(=O)c2cncc(NS(=O)(=O)c3ccc(Br)cc3)c2)cc1	10
CCC(C)C(c1n[nH]c(CCc2ccccc2)n1)N1Cc2ccccc2C1=O (stereo unspecified)	-4

3 entries from above, ordered by formula weight, low to high:
SMILES	Tg IFNy HTS
O=C(NCc1ccncc1)c1cccc2[nH]cc(CN3CCCC3)c12	57
CCC(NC(=O)c1cc(C(C)C)nn1C)c1ccc(S(C)(=O)=O)cc1 (stereo unspecified)	-1
COc1ccc(NC(=O)Nc2cccc3c2O[C@@H](CN(C)Cc2ccc(C(=O)O)cc2)[C@@H](C)CN([C@H](C)CO)C3=O)cc1	4

Source: PubChem (Broad Institute)

Not all compounds are listed, so the mix of outcomes need not match the whole.
